Bioassay records from PubChem BioAssay.
Mtb H37Rv = M. tuberculosis H37Rv growth inhibitors, H37Rv strain (AID 1626) | M. tuberculosis H37Rv growth inhibition; higher % means a stronger effect | 0.95% of 220,000 active | inhibition, % at 10 µM, or IC50 in µM where a hit was titrated;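 active = confirmed in a dose series; inconclusive = inhibition above 80% but not taken into the dose series; inactive = below 80% or under 30% at every dose of the series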;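 also: bacteria incubated seven days before Alamar blue readout; 0% = bacteria only wells and 100% = bacteria with antibiotic wells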
RecA intein inh = blocks M. tuberculosis RecA intein splicing; P9WHJ3; inhibition, %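 (about 9 µM by stock and volumes)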; cell-free RecA intein splicing, fluorescence; 0.75% of 290,000 active; in the data active = inhibition above about 30%; inconclusive = no clear call, values can overlap the other calls;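 also: 0% = vehicle wells and 100% = reference inhibitor control wells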
Target sequence (P9WHJ3 whole entry, looked up): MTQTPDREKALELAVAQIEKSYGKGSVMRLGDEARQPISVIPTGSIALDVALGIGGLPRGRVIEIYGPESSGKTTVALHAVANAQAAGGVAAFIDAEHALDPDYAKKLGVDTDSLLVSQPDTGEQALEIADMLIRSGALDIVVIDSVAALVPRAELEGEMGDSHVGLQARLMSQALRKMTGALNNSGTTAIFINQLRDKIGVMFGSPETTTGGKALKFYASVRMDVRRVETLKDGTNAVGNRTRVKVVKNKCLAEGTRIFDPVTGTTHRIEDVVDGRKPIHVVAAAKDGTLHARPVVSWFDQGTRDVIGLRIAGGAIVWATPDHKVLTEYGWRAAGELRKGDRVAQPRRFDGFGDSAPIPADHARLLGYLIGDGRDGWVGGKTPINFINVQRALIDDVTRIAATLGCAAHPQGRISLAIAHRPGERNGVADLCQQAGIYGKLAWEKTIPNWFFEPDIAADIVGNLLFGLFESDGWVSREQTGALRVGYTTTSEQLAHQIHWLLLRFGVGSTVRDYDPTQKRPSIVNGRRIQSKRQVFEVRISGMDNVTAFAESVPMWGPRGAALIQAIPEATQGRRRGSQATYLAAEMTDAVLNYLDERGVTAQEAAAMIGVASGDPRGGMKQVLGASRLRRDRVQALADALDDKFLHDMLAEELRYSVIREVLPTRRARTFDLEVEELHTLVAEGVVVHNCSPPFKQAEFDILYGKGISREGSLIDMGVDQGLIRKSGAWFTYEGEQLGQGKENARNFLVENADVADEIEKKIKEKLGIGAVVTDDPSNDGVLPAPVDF
YopH inh = blocks Yersinia enterocolitica YopH tyrosine phosphatase. fluorescence Ex485/Em525. inhibition, %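 (about 10 µM by stock and volumes)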. 0.16% of 140,000 active;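 active = inhibition of 50% or more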;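 also: controls were vehicle for no effect and minimum signal wells for full effect; inactives centre near -20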
Mtb bLac sens = beta-lactam sensitization of Mtb H37Rv; M. tuberculosis H37Rv growth with meropenem, percent inhibition; hits of this screen are not shown here; inhibition, % at 25 µM; 0.27% of 330,000 active; AID 434955;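 active = about 74% or more and at least 40 points above the plate without the antibiotic, then above 30% in a dose series; inconclusive = first-round hits that could not be retested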;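 also: growth measured after seven days incubation then overnight dye step; 0% = bacteria only wells and 100% = bacteria with antibiotic; twin plates without the antibiotic show which effects depend on it; some results filed as inactive read as strong as hits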
Arbovirus anti = blocks arbovirus infection. arbovirus infection cell-based antiviral screen. inhibition, % at 10 µM. 0.37% of 200,000 active;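 active = inhibition from about 30%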;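 also: bluetongue infection of BSR cells; cell survival read as ATP light after 72 h; 0% = infected wells without compound and 100% = uninfected wells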
Arbovirus anti repeat = further read-out of Arbovirus anti, marked with its call; inhibition, %; measured here: 10K subset replicate screen; many hits read low in the repeat;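 first of two repeat runs on a subset; 0% = infected and 100% = uninfected wells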
* = called active by the depositor; ? = inconclusive; · = no result given.

SMILES	Mtb H37Rv	RecA intein inh	YopH inh	Mtb bLac sens	Arbovirus anti	others
C/C(=N\NC(=O)c1ccn(C)n1)c1ccc(NC(=O)C2CCC2)cc1	·	-2.0	·	2	·
Brc1ccc(-c2nnc3sc(CN4CCC5(CC4)OCCO5)cn23)cc1	-7%	-0.1	4	-17	-4
CCCNC(=O)N1C2=NC(C(=O)OC)=C(C(=O)OC)[C@@H]3N(Cc4ccccc4)c4ccccc4[C@]23C[C@H]1CO	4%	-0.4	·	-1	·
COc1ccc(C(C#N)c2cnccn2)cc1OC (configuration not stated)	·	-0.5	·	-21	·
C=CCn1c(SCC(=O)NCCc2ccccc2)nnc1C(C)NC(=O)c1cccs1 (configuration not stated)	-3%	-1.2	8	-1	-3
Cc1cccc(C(C(=O)NC2CCCCC2)N(Cc2cccnc2)C(=O)c2csnn2)c1 (configuration not stated)	·	0.1	·	6	·
O=C(Nc1ccccc1F)c1cccc(C(=O)Nc2ccccc2F)c1	·	-1.2	·	8	·
FC(F)(F)c1cc(-c2ccccc2)nc(NC2CCCC2)n1	-3%	13	-13	-4	-40
COc1ccc(N2CC(O)=C(c3n(C)c4ccccc4[n+]3C)C2=N)cc1	-4%	-1.1	-29	-13	-3
COc1ccc(-c2cc(C(F)(F)F)nc(SCC(=O)NCCN3CCOCC3)n2)cc1OC	-12%	1.5	-10	-7	4
O=C(c1sc2ccccc2c1Cl)N(Cc1cccs1)C1CCS(=O)(=O)C1 (configuration not stated)	5%	5.4	-16	3	-3	Arbovirus anti repeat=-6
Cc1ccc(C2OC3=C(C(=O)CC(C)(C)C3)C(N)=C2C#N)o1 (configuration not stated)	4%	0.0	·	2	8
Cc1ccc(S(=O)(=O)NCc2cn3ccccc3n2)c(C)c1	·	-3.0	·	1	·
CCCN1CCC(=O)N([C@H](CSc2ccccc2)CC(C)C)CC1	·	2.6	·	-13	·
COc1ccccc1N1CCN(C2CCN(S(=O)(=O)c3ccc4ccccc4c3)CC2)CC1	-1%	2.5	-2	11	-17
COC(=O)c1[nH]c2cc(OC)ccc2c1NC(=O)CCN1CCN(c2cccc(C)c2C)CC1	?	-0.3	-53	98	-4
O=[N+]([O-])c1ccc(-c2nc(NCc3ccccc3)c3ccccc3n2)cc1	-2%	-1.5	-14	1	-8
COc1nn(CC(=O)N2N=C(C(F)F)CC2(O)C(F)F)cc1[N+](=O)[O-] (configuration not stated)	-9%	-3.6	-42	-3	9
COc1ccc([N+](=O)[O-])cc1NS(=O)(=O)c1ccccc1	7%	1.1	-29	6	-7
Cc1cc(NC(=O)CCS(=O)(=O)c2ccc3c(c2)NC(=O)C(C)S3)ccc1Br (configuration not stated)	·	0.5	·	-4	·
COc1cc2c(cc1OC)CN(Cc1cc(=O)oc3cc(C)c(C)cc13)CC2	25%	-24	13	3	5
CCc1c(C)[nH]c2c1C(=O)C(CN1CCOCC1)CC2 (configuration not stated)	10%	-2.3	·	-3	·
O=C(COc1ncnc2ccccc12)N1CCOCC1	-7%	0.3	-38	-7	8
COc1ccc(Cc2nc3ccc(C(=O)NCc4cc(C)no4)cc3o2)cc1OC	·	-4.4	·	3	·
Cc1ccc(C(=O)Nc2nnc(S(=O)(=O)N3CCOCC3)s2)cc1	·	0.3	·	5	·

Entries above that contain a CF3 group:
SMILES	Mtb H37Rv	RecA intein inh	YopH inh	Mtb bLac sens	Arbovirus anti	others
FC(F)(F)c1cc(-c2ccccc2)nc(NC2CCCC2)n1	-3%	13	-13	-4	-40
COc1ccc(-c2cc(C(F)(F)F)nc(SCC(=O)NCCN3CCOCC3)n2)cc1OC	-12%	1.5	-10	-7	4

Molecules above containing bromine (two):
SMILES	Mtb H37Rv	RecA intein inh	YopH inh	Mtb bLac sens	Arbovirus anti	others
Brc1ccc(-c2nnc3sc(CN4CCC5(CC4)OCCO5)cn23)cc1	-7%	-0.1	4	-17	-4
Cc1cc(NC(=O)CCS(=O)(=O)c2ccc3c(c2)NC(=O)C(C)S3)ccc1Br (configuration not stated)	·	0.5	·	-4	·

Further records:
SMILES	Mtb H37Rv	RecA intein inh	YopH inh	Mtb bLac sens	Arbovirus anti	others
FC(F)(F)c1cccc(-c2cc3ccccc3nc2N2CCCC2)c1	6%	-1.8	-15	32	-12
Cc1nc2nc(C)c(CCC(=O)NCc3ccc4c(c3)OCO4)c(C)n2n1	-3%	-0.8	-47	-12	2
O=C(NCCc1ccc(F)cc1)C(=O)Nc1cc2c3c(c1)CC(=O)N3CCC2	·	1.5	·	-4	·
CCC(Oc1ccccc1)C(=O)NCc1ccc(S(N)(=O)=O)cc1 (configuration not stated)	0%	0.2	-21	4	2
Cc1ccc(C)c(S(=O)(=O)N2CCN(C(=O)Cn3c(=O)cnc4ccccc43)CC2)c1	·	1.5	·	-13	·
CCN1C(=O)[C@H]2[C@@H](c3ccc(-c4ccc(F)cc4)cc3)N3CCCC[C@@]3(C(=O)OC)[C@H]2C1=O	·	7.2	·	-7	·
COc1ccc(CNC(=O)c2cc3c(=O)n4cccc(C)c4nc3n(CC3CCCO3)c2=N)cc1 (configuration not stated)	·	-31	·	-2	·
Cc1ccc(CNC(=O)c2ccc(N3CCC4(CC3)CC(c3ccccc3)=NO4)c(NC(=O)c3cccc(C)c3)c2)cc1	·	-2.8	·	-10	·
Cc1ccc(S(=O)(=O)N2CC=C(C(=O)NC3CC3)CC2)cc1	-1%	-1.0	·	-7	·
COc1ccc(NC(=O)CNC(=O)Cn2cnc3sc4c(c3c2=O)CCCC4)cc1OC	·	-2.3	·	2	·
Cc1ccc(NC(=O)C2CCCN(S(=O)(=O)c3c(C)noc3C)C2)c(C)c1 (configuration not stated)	-3%	-4.9	-5	-2	5
Cc1ccc2cc(CCNC(=O)C3CCCC3)c(=O)[nH]c2c1	7%	-1.2	-1	-8	9	Arbovirus anti repeat=-2
COc1ccc(C2CC(=O)c3cnc(Nc4cc(C)cc(C)c4)nc3C2)cc1 (configuration not stated)	6%	3.9	-87	99	5
O=C1c2ccccc2C(=O)N1c1ncc(Cc2ccc(Cl)cc2)s1	?	·	-33	-4	15
CCc1ccc(NC(=O)CN2CCCN(S(=O)(=O)c3ccc(F)cc3)CC2)cc1	·	0.6	·	4	·
COCCNC(=O)C1CCC(CNS(=O)(=O)c2cccc3nsnc23)CC1 (configuration not stated)	·	-10.0	·	2	·
COC(=O)C1=CN(c2cccc(C(F)(F)F)c2)C=C(C(=O)OC)C1c1ccc(O)c(OC)c1	·	3.6	·	8	·
CCN(CC)CCN(C)C(=O)CCc1nnc(-c2ccc(C)s2)o1	-4%	-2.0	·	-12	-2
CCN(CC)S(=O)(=O)N1CCC(C(=O)NCc2ccc(C)cc2)CC1	-10%	-0.6	0	-6	7
Cc1ccc2[nH]cc(C(=O)NCc3cccs3)c(=O)c2c1	16%	0.4	-8	-2	-10
O=C(COc1ccc(C(=S)N2CCCC2)cc1)Nc1ccc(F)cc1	·	-2.4	·	-1	·
O=C(Nc1ccc(N2CCOCC2)nc1)c1cccs1	-1%	-1.2	·	-1	-1
O=C1CCC(C(=O)NC2(C(=O)NC3CCCCC3)CCCCC2)N1 (configuration not stated)	0%	-0.3	-58	-12	5	Arbovirus anti repeat=5
Cc1ccc(C)c(NC(=O)C2CCCN2S(=O)(=O)c2ccc3c(c2)n(C)c(=O)c(=O)n3C)c1 (configuration not stated)	·	-0.2	-36	3	2
COc1cc(C(C)=O)ccc1OCCCN1CCC(Cc2ccccc2)CC1	·	-1.1	·	-4	·
SMILES	Mtb H37Rv	RecA intein inh	YopH inh	Mtb bLac sens	Arbovirus anti	others
COc1ccc2ccccc2c1/C=N\n1c(C)cc(C)c(C(N)=O)c1=O	-1%	-8.5	4	-5	0
Cc1cc(C)nc(NC(=O)C(C)C)n1	5%	-0.6	-17	-13	2
Cc1c2cnn(CC(=O)N3CCC4(CC3)OCCO4)c(=O)c2c(C)n1Cc1ccccc1	7%	-2.6	-34	-7	8
CCC(CO)n1c(=S)[nH]c2cc(OC)c(OC)cc2c1=O (configuration not stated)	-8%	·	·	4	2
Cc1ccc(CCNC(=O)c2cc(S(=O)(=O)N3CCCCC3)c[nH]2)cc1	·	3.5	·	0	·
CCc1noc(C)c1C(=O)NNC(=O)COc1ccc(Br)cc1	·	4.3	·	-4	·
Cc1ccc(N2C(=O)SC(N(CC(=O)O)c3ccc(C)cc3)C2=O)cc1 (configuration not stated)	4%	-1.8	·	17	0
Cc1snc(SCC(=O)N/N=C(\N)COc2cccc(C(F)(F)F)c2)c1C#N	-8%	0.1	-6	5	-3
Cn1c(Cc2ccc3c(c2)OCO3)nnc1SCC(=O)NC1CCCC1	-3%	-1.6	·	-4	10
O=[N+]([O-])c1cc(/C=N/N2CCN(c3ccccc3)CC2)ccc1Cl	9%	-3.1	-20	0	-9
CCOC(=O)N/N=C(\CCC(=O)O)c1cccs1	-10%	-3.0	·	-3	·
Cc1ccc(OC(=O)Cn2c(C(F)(F)F)nc3ccccc32)cc1	2%	0.5	-23	32	-6
COc1ccc(/C=N/NC(=O)c2cccc(Br)c2)cc1CN1CCOCC1	-5%	2.3	·	4	·
NS(=O)(=O)c1ccc(NC(=O)CN2CCc3ccccc3C2)cc1	·	-0.5	·	-5	·
O=C1CC2(CCCC2)CC(=O)N1CCCCN1CCN(c2ncccn2)CC1	0%	-1.1	-10	-7	-2
CCOC(=O)C1CCN(c2c([N+](=O)[O-])c(C(Cl)Cl)nn2-c2ccccc2)CC1	1%	14	4	4	1
COc1ccc(Br)cc1CNC(=O)Cc1cccs1	·	-2.8	·	2	·
CCOc1ccccc1NC(=S)N1CCC(NC(=O)C(C)(C)C)CC1	4%	-2.4	·	-3	0
CCCN(CCC)S(=O)(=O)c1ccc(C(=O)Nc2nnc(-c3cccc(OC)c3)o2)cc1	?	1.2	-24	97	-21
O=[N+]([O-])c1ccc(/C=[N+](\[O-])[C@@H]2CCCC[C@@H]2/[N+]([O-])=C/c2ccc([N+](=O)[O-])o2)o1	·	-14	·	100	·
COc1ccccc1CNS(=O)(=O)c1ccc2c(c1)CC(C)N2C(=O)C1CC1 (configuration not stated)	·	0.4	·	5	·
CCOC(=O)N1CCN(CC(O)COc2ccc(-c3ccccc3)cc2)CC1 (configuration not stated)	·	-1.0	·	8	·
COc1cc(S(=O)(=O)N2CCN(C(=O)c3ccccc3)CC2)c(OC)cc1Br	-3%	2.5	·	-2	13
COc1ccccc1CNC(=O)C12CC3CC(CC(C3)C1)C2	·	-5.5	·	2	·
COCCCn1cc(C(=O)c2cc(OC)ccc2OCC(=O)Nc2cc(C)on2)cc(C#N)c1=O	-3%	-1.4	-14	-9	1

Brought forward from above: three compounds; new compounds follow.
SMILES	Mtb H37Rv	RecA intein inh	YopH inh	Mtb bLac sens	Arbovirus anti	others
COc1cc(S(=O)(=O)N2CCN(C(=O)c3ccccc3)CC2)c(OC)cc1Br	-3%	2.5	·	-2	13
COc1ccccc1CNC(=O)C12CC3CC(CC(C3)C1)C2	·	-5.5	·	2	·
COCCCn1cc(C(=O)c2cc(OC)ccc2OCC(=O)Nc2cc(C)on2)cc(C#N)c1=O	-3%	-1.4	-14	-9	1
CN(C(=O)CSc1nnc(-c2ccncc2)n1Cc1ccccc1)C1CCS(=O)(=O)C1 (configuration not stated)	3%	0.1	·	-11	7
COCC(=O)Nc1nc(-c2ccc([N+](=O)[O-])cc2)cs1	0%	-2.0	·	-5	-2
Nc1c(C(=O)NCc2ccco2)c2nc3ccccc3nc2n1CCc1ccc(F)cc1	22%	-56	7	94	-11
Cc1ccsc1/C=N/NC(=O)c1ccc(-n2cccc2)cc1	·	-0.4	·	-10	-3
O=C1CC(c2ccc(Cl)cc2)CC(O)=C1C=NCCN1CCNCC1 (configuration not stated)	-11%	-5.3	-25	0	7
NNC(=O)CCn1nnc2ccccc21	7%	7.3	·	-2	·
COc1ccc(OCCNc2cc(N3CCCCC3)ccc2[N+](=O)[O-])cc1	·	2.5	-37	-7	1
COCCN(C(=O)Cc1cccs1)C(C(=O)NC1CCCC1)c1ccc(OC)c(OC)c1 (configuration not stated)	2%	-0.3	·	6	4
CCOC(=O)C(NC(C)=O)C(=O)Nc1ccc(OC)cc1 (configuration not stated)	3%	0.1	·	-2	3
CCOc1ccc(NS(=O)(=O)c2ccc(-c3cnc(C4CC4)o3)cc2)cc1	·	5.6	·	7	·
Cc1cc2cc(CNC(=O)Nc3ccc(Cl)c(Cl)c3)ccc2n1C	5%	-3.4	·	-2	-10
COc1cc(OC)cc(C(=O)NNC(=O)c2cc3c(s2)CCCC3)c1	3%	0.0	·	2	-6
Cc1ccc(CNC(=O)CCc2nnc3ccc(N4CCC5(CC4)OCCO5)nn23)cc1	·	-0.3	·	-3	·
OCc1c(Cl)nc2ccccn12	3%	·	·	-2	2
Cc1c(N/N=C(\C#N)C(=O)c2ccccc2)c(=O)n(-c2ccccc2)n1C	49%	4.0	-15	·	-32
COc1ccc(NC(=O)C(=O)NNC(=O)c2cccs2)c(OC)c1	2%	1.5	-7	75	-8
COc1ccc(CC(=O)Oc2ccc(C#N)cc2)cc1	·	7.4	·	5	·

The list is partial; the hit share may differ from the screen's.
